HNF4A DNA FP: change in binding of human HNF4 alpha to DNA; activity change, % at 10 µM; AID 1224865; HNF4a-FITC DNA binding, fluorescence polarization, 1 h; actives 0.3% (n = 360,000); in the data active means activity change above about 30%, passing the limit was not always enough;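 further: controls were the assay level and a saturating level of protein; the project sought stronger binding though the title names inhibitors; some compounds called inactive have numbers as strong as hits; positive values seem to mean higher polarization but the record does not say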
ALR H2O2 inh: human ALR oxidase inhibition via reduced H2O2; P55789; purified ALR, DTT oxidation, H2O2 HRP-luminol luminescence; inhibition, % (test concentration not listed); actives 3.8% (n = 290,000); AID 485317;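 active means mean and each replicate at 75% or more; inconclusive means only one of the two met; inactive means neither met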;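 further: stock transfer was 7.5 nL into about 7.5 µL; 0% = neutral wells and 100% = wells with inactivated enzyme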
UCH37 DUB inh: inhibitors of human deubiquitinating enzyme UCH37. inhibition, % (concentration not given with the values). actives 0.33% (n = 330,000). AID 588478. Q9Y5K5. purified proteasome/UCH37, Ub-AMC cleavage fluorescence;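 active means mean of two replicates above 20%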;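 further: 0% = compound-free wells with enzyme and 100% = wells lacking proteasome; stock transfer was 100 nL into about 20 µL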
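assay system = human UCH37 enzyme supplied as purified proteasome complex | amount = proteasome at 0.15 nM in the dispensed enzyme solution | schedule = 30 min compound-proteasome preincubation then 25 min substrate reaction, room temperature | measured by = fluorescence, ex 355 nm, em 460 nm | benchmarks = no-proteasome wells (full inhibition) and compound-free wells (no inhibition)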
B2AR ag: activates human beta-2 adrenergic receptor causing internalization. response, % (no concentration beside the values). actives 0.43% (n = 340,000). Am2.2-beta2AR cells, FAP receptor internalization, flow cytometry; reference of the scale not given here. P07550;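 active means response above a set limit, near 3 SD of response in nonfluorescent compounds, cut at about 42% in these data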;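 further: stock transfer was 100 nL into about 11 µL; a reference agonist was the positive control; negative values mostly stem from fluorescent compounds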
FGF22 binding: FGF22 (human) thermal shift binding; Q9HCT0; recombinant FGF22 thermal shift, SYPRO orange fluorescence; percent of sucrose octasulfate shift, DMSO zero; calls only at 9.99 µM; actives 1.5% (n = 340,000); AID 651658;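 active means melting point raised past a set limit in the mean and every replicate; inconclusive means no clear call; three in four hits are not shown here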
Ecoli growth: blocks Escherichia coli growth. OD600, 23 h; stronger effect = lower value. OD600 absorbance (concentration not given with the values). actives 0.21% (n = 330,000). AID 1053175;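 active means OD600 absorbance below the run mean of sample wells minus 3.6 SD, in any replicate, cut at about 0.56 in these data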;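 further: stock transfer was 300 nL into about 60 µL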
LANA-H2B inh: blocks KSHV LANA binding to histone H2A/H2B | Q9QR71 | cell-free LANA-H2A/H2B peptide, fluorescence polarization | inhibition, % (test concentration not listed) | actives 0.6% (n = 320,000) | AID 2629; in the data active means inhibition mostly above about 10%, no sharp cut-off; inactive means mostly below about 6.7%;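 further: stock transfer was 7.5 nL into about 10 µL; 0% = median of vehicle wells and 100% = median of positive control wells; one replicate is shown; the record names a cut of 25% in any replicate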
Target sequence (Q9QR71 whole entry, looked up): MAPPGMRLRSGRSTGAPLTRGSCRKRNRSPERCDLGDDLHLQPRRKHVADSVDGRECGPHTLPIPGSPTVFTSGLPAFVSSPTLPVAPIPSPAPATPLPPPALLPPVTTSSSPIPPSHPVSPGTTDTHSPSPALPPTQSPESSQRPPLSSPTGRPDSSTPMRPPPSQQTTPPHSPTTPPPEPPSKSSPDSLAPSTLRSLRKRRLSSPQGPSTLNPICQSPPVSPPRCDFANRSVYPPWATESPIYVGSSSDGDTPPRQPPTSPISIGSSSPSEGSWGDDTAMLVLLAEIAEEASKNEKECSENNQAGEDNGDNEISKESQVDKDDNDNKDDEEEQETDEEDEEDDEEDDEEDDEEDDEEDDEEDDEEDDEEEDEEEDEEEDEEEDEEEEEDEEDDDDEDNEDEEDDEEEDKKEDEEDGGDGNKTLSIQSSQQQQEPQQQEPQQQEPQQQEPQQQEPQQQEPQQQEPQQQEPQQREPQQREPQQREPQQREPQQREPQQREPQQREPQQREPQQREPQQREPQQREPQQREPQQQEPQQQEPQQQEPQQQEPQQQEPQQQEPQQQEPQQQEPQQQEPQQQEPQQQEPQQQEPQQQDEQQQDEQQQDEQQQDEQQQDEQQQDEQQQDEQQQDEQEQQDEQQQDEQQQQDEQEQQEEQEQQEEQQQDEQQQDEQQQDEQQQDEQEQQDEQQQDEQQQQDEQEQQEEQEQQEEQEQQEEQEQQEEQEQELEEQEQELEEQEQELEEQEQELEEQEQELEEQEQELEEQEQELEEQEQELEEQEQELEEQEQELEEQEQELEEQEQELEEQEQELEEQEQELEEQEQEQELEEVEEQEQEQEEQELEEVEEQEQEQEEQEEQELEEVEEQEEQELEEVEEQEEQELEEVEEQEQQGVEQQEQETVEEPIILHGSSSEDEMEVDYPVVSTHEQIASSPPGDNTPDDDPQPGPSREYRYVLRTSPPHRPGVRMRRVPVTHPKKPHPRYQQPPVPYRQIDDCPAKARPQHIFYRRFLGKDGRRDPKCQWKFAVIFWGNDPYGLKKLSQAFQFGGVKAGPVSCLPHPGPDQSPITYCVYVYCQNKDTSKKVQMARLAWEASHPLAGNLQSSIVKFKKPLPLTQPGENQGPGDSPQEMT
The depositor's hits bear a star; i = inactive; ? = inconclusive; / = not tested or not shown. The list is partial, so the mix of outcomes need not match the whole.

HNF4A DNA FP,ALR H2O2 inh,UCH37 DUB inh,B2AR ag,FGF22 binding,Ecoli growth,LANA-H2B inh,smiles
-2.3,3,0.5,-2,i,0.72,3.1,Cc1oc(-c2cccc(F)c2)nc1CN(Cc1ccccc1)C[C@@H]1CCC(=O)N1
-5.1,5,1.2,0,/,0.7,0.2,COC(=O)C1=C(C)N(C)C(=O)NC1c1ccccc1 (stereo unspecified)
-0.6,-2,3.7,0,i,0.68,-6.9,c1ccc(CCn2cnc3ccccc32)cc1
5.9,-2,1.5,-3,i,0.68,2.9,O=C(NCCCN1CCCC1=O)c1cc(-c2ccc3c(c2)OCO3)nc2ccccc12
0.6,-6,2.3,-8,i,0.65,3.1,Cc1cc(C)c(S(=O)(=O)Nc2ccccc2C(=O)N2CCCC2)c(C)c1
/,-2,-19,/,/,0.73,-1.9,COc1cccc(-n2c([S-])c(C(=O)Nc3ccc(C(F)(F)F)cc3)[n+]3ccccc23)c1
1.9,54,-0.9,-22,/,0.66,-5.6,Cc1ccc(-n2c(C)cc(C(=O)NS(=O)(=O)c3ccc(C)cc3)c2C)cc1
0.2,1,0.5,-24,/,0.72,0.4,Cc1ccc(Cn2ncc3c(N4CCCC4)ncnc32)cc1
-2.5,-12,5.0,-7,/,0.71,-2.6,O=C(CCc1nc(-c2ccccc2F)no1)Nc1ccc(Oc2ccccc2)cc1
0.5,-1,-1.1,3,/,0.74,0.3,CCOc1cc(C)c(C(C)C)cc1S(=O)(=O)N1CCOCC1

Next part.
HNF4A DNA FP,ALR H2O2 inh,UCH37 DUB inh,B2AR ag,FGF22 binding,Ecoli growth,LANA-H2B inh,smiles
-0.5,-4,-0.6,11,/,0.66,-5.9,O=C(NC1CCCCC1)N1CCN(CCc2ccccc2)CC1
0.8,-2,3.5,2,/,0.63,-3.1,O=C(CCC1CCCC1)NCCS(=O)(=O)N1CCN(c2ccccc2F)CC1
1.3,/,0.0,-4,i,0.67,-0.8,CCn1c(Cc2ccccc2)nnc1SCC(=O)c1c(N)n(C2CC2)c(=O)[nH]c1=O
1.9,-1,4.9,2,/,0.65,-6.8,CCN(CC)C(=O)C1CC(c2ccc(OC)cc2)=NO1 (stereo unspecified)
-2.1,-8,/,2,i,/,-6.4,CCOc1cc(/C=N/NC(=O)c2cc(-c3cccnc3)nc3ccccc23)ccc1O
2.6,8,-0.1,-1,i,0.68,-168,Cc1cccc(NC(=O)C2CCCN2C(=O)OCc2ccccc2)c1 (stereo unspecified)
-0.4,/,1.5,-1,i,0.69,-1.0,O=C(Cc1ccccc1[N+](=O)[O-])OCC(=O)c1ccccc1Br
1.0,/,-1.0,9,i,0.72,-5.5,O=C(O)C1CCCN1c1nc(-c2ccc(Cl)c(Cl)c2)cc(C(F)(F)F)n1 (stereo unspecified)
/,-4,7.3,/,/,/,7.7,NC(=O)c1cc([N+](=O)[O-])ccc1NCCN1C(=O)c2ccccc2C1=O
4.7,-13,2.6,-1,/,0.76,4.1,CCCS(=O)(=O)c1c(S(=O)(=O)CCC)c2c(N)cccn2c1C(=O)c1ccc(F)cc1

Some of the entries above in another layout:
Order of results – HNF4A DNA FP	ALR H2O2 inh	UCH37 DUB inh	B2AR ag	FGF22 binding	Ecoli growth	LANA-H2B inh
- NC(=O)c1cc([N+](=O)[O-])ccc1NCCN1C(=O)c2ccccc2C1=O
  /	-4	7.3	/	/	/	7.7
- CCCS(=O)(=O)c1c(S(=O)(=O)CCC)c2c(N)cccn2c1C(=O)c1ccc(F)cc1
  4.7	-13	2.6	-1	/	0.76	4.1

Going on with the list.
HNF4A DNA FP,ALR H2O2 inh,UCH37 DUB inh,B2AR ag,FGF22 binding,Ecoli growth,LANA-H2B inh,smiles
2.8,-10,/,1,i,/,-5.8,NC(=S)N/N=C1\CC(c2ccc3c(c2)OCCCO3)Oc2ccc(F)cc21 (stereo unspecified)
1.6,2,-48,2,i,0.67,-5.2,CCOc1c2ccc(C(=O)NCc3ccc4c(c3)OCO4)cc2nn1CC
1.5,10,0.5,3,i,0.7,-0.4,CCN(C(=O)COc1cc(=O)n(CC)c2ccccc12)c1cc(Cl)ccc1OC
2.8,/,1.1,-4,i,0.63,-6.4,O=C1COc2ccc(NC(=O)c3ccccc3C(=O)O)cc2N1
-0.3,-2,4.4,-6,/,0.69,4.0,Cc1cc(C)n2c(SCc3c(C)noc3C)nnc2n1
-0.7,/,1.6,-11,/,0.73,1.2,Cn1c(=O)c2cc(S(=O)(=O)NCCC(=O)Nc3ccc(Cl)cc3)ccc2n(C)c1=O
-4.9,?,4.9,-5,i,0.72,2.6,O=C(CN1CCN(c2ccccc2)CC1)Nc1ccc2c(c1)CCC2
-1.3,/,-0.2,10,i,0.68,-4.3,CC(c1ccon1)N(C)Cc1cn[nH]c1-c1ccc(F)cc1F (stereo unspecified)
-1.3,-2,0.4,-3,/,0.67,2.1,O=C(Cn1nnc(-c2ccccc2)n1)NCc1ccco1
2.1,-7,-1.6,-5,i,0.65,0.3,O=C(NCC(=O)N1CCCC(C(F)(F)F)C1)c1ccccc1F (stereo unspecified)

Five entries out of the list above, ordered by the number in Ecoli growth, highest first:
SMILES | Ecoli growth
Cc1ccc(Cn2ncc3c(N4CCCC4)ncnc32)cc1 | 0.72
Cc1cc(C)n2c(SCc3c(C)noc3C)nnc2n1 | 0.69
O=C(NCCCN1CCCC1=O)c1cc(-c2ccc3c(c2)OCO3)nc2ccccc12 | 0.68
Cc1ccc(-n2c(C)cc(C(=O)NS(=O)(=O)c3ccc(C)cc3)c2C)cc1 | 0.66
O=C1COc2ccc(NC(=O)c3ccccc3C(=O)O)cc2N1 | 0.63

(continued)
HNF4A DNA FP,ALR H2O2 inh,UCH37 DUB inh,B2AR ag,FGF22 binding,Ecoli growth,LANA-H2B inh,smiles
-2.5,7,/,7,i,/,-4.8,O=C(O)c1ccc(N2C(=O)CC(SC(=Nc3ccccc3)Nc3ccccc3)C2=O)cc1 (stereo unspecified)
-0.3,-25,4.3,0,i,/,0.4,CCN1C(=O)[C@H]2[C@@H](c3ccc(-c4ccc(F)cc4)c(OC)c3)N3CCCC[C@@]3(C(=O)OC)[C@H]2C1=O
0.6,-9,5.3,-2,i,0.69,5.1,Cc1cc(C)cc(OCC(=O)NNC(=O)c2cc3ccccc3o2)c1
4.6,/,3.6,6,i,0.66,/,O=C(c1ccc(OCC2CCCO2)cc1)N1CCN(S(=O)(=O)c2cccc(F)c2)CC1 (stereo unspecified)
-0.6,6,0.9,2,i,0.7,4.6,Cc1ccc(C(=O)c2c3ccccc3[n+]([O-])n2CCC(=O)O)cc1
-0.7,51,2.0,8,i,0.64,3.7,COc1cc(C2(c3ccc(O)c(OC)c3)C(=O)N(C)c3ccc(Br)cc32)ccc1O
1.4,-2,2.7,0,i,0.74,3.5,Cc1ccc(C2CC(c3ccc(F)cc3)Nc3nc(N)nn32)cc1 (stereo unspecified)
2.5,0,3.3,-6,i,0.73,-1.7,COCC1CCN(C(=O)c2cc(COc3ccccc3SC)on2)C1 (stereo unspecified)
-0.7,24,4.1,-3,i,0.66,0.3,O=C(Nc1cccc(Br)c1)C1CCCC1
2.0,-17,7.4,-2,i,0.81,1.8,CCOC(=O)c1oc2ccc(S(=O)(=O)n3nc(-c4ccc(Cl)cc4)cc3N)cc2c1C

More entries follow:
HNF4A DNA FP,ALR H2O2 inh,UCH37 DUB inh,B2AR ag,FGF22 binding,Ecoli growth,LANA-H2B inh,smiles
-0.7,5,19,5,i,0.68,-2.2,N#C/C(=C\c1ccc(O)c([N+](=O)[O-])c1)C(=O)NCc1ccccc1
-2.6,-4,-0.1,6,/,0.7,-3.9,Cc1ccc(OCC(=O)Nc2ccc(S(=O)(=O)Nc3ccccn3)cc2)c(C)c1
0.7,2,-0.2,1,/,0.7,0.8,O=C(O)C1C2C=CC3(CN(Cc4ccncc4)C(=O)C13)O2 (stereo unspecified)
-1.6,-4,4.4,-5,i,0.69,3.6,O=C(NCCCn1ccnc1)c1cc2ccccc2o1
3.0,19,-249,35,/,0.74,4.1,CCC(C)Sc1ccc(-c2nc3ccccn3c2NCc2ccccc2)cc1OC (stereo unspecified)
1.9,24,/,-4,i,/,3.2,Nc1nonc1-n1nnc(C(=O)N/N=C/c2ccc(O)cc2)c1CN1CCCCCC1
0.8,-5,2.4,0,i,0.65,3.8,Cc1cc(NC(=O)CCS(=O)(=O)c2ccc(F)cc2)no1
4.1,75,1.6,12,/,0.69,-0.7,CCOC(=O)c1c(-c2ccsc2)csc1N
2.0,-2,1.9,-7,i,0.67,2.4,O=C(CCc1nnc(-c2ccsc2)o1)N1CCCCC1CCn1ccnc1 (stereo unspecified)
38*,19,/,5,/,/,4.4,CN1/C(=C\C=N\NC(=O)c2ccc(O)cc2)C(C)(C)c2ccccc21

Going on with the list.
HNF4A DNA FP,ALR H2O2 inh,UCH37 DUB inh,B2AR ag,FGF22 binding,Ecoli growth,LANA-H2B inh,smiles
3.9,0,3.6,-1,i,0.71,-8.0,CN1CCN(c2ccccc2NC(=O)c2ccc3c(c2)OCCO3)CC1
-0.6,0,-0.4,-3,i,0.68,1.8,COc1ccccc1CCNC(=O)CCn1nc(C)c2c(C)n(-c3ccccc3)nc2c1=O
-0.2,4,-0.5,-7,/,0.64,4.6,CC1CN(CC(=O)c2c(N)n(Cc3ccccc3)c(=O)n(C)c2=O)CC(C)O1 (stereo unspecified)
6.6,-14,1.3,0,/,0.76,-4.9,CN(Cc1ccccc1)c1nc(-c2ccc([N+](=O)[O-])cc2)nc2ccccc12
-2.8,/,3.4,8,i,0.61,/,O=C(Nc1cc(S(=O)(=O)N2CCOCC2)ccc1N1CCCC1)c1ccc(Cl)cc1
0.0,/,2.5,3,i,0.69,-6.5,COc1ccccc1OCc1ccc(C(=O)NCC(C)C)o1
-0.3,/,-18,-79,/,0.69,2.6,Cc1ccc(-c2nc3ncccc3o2)cc1NC(=O)CC(C)C
-2.0,-17,3.2,-2,i,0.73,0.2,O=C(CSc1ccc2nnc(-c3ccccn3)n2n1)Nc1ccccc1F
-0.2,-4,-66,-4,i,0.65,-5.1,COc1cc(NC(=O)Nc2cccc(Cl)c2)c(C(=O)O)cc1OC
25,45,6.1,7,i,0.69,3.3,Cc1cc(N(C)C)ccc1N=Nc1ccc(N)cc1

Going on with the list.
HNF4A DNA FP,ALR H2O2 inh,UCH37 DUB inh,B2AR ag,FGF22 binding,Ecoli growth,LANA-H2B inh,smiles
-0.9,-2,1.3,3,i,0.61,0.6,CN(Cc1ccccc1)C(=O)COC(=O)CNS(=O)(=O)c1ccc2ccccc2c1
0.9,-13,3.3,-10,/,0.69,-3.5,CC(NC(=O)c1ccccc1NC(=O)c1ccco1)C(=O)O (stereo unspecified)
0.4,-3,-33,-3,/,0.72,4.3,O=C(Nc1ccccc1N1CCCCC1)c1ccc(-c2ccc(Cl)cc2)o1
-0.6,-1,2.9,-5,/,0.69,-1.4,CCOC(=O)c1c(C)n(-c2ccc(F)cc2)c2ccc(O)cc12
-1.0,-3,4.5,3,/,/,1.9,CCN1C(=O)/C(=C/N2CC(C)CC(C)C2)SC1=S (stereo unspecified)
10,0,1.5,4,i,0.64,-5.3,O=C(CNCc1ccc(Cl)cc1)NCc1ccco1
-1.2,98*,7.8,-1,i,0.7,-2.8,CCOC(=S)SCC(=O)Nc1nc(C)c(C)s1
2.0,34,-51,3,i,0.67,5.0,C=CCNc1nnc(SCC(=O)Nc2ccccc2OC)c2ccccc12
1.0,5,3.0,3,i,0.7,2.9,Cc1ccc(S(=O)(=O)N2CCC(C(=O)NCc3cccnc3)CC2)cc1
2.5,-5,0.9,0,i,0.72,0.4,Cc1cccc(CCN=C(N)NS(=O)(=O)c2ccccc2)c1
